Source: PubChem BioAssay (several laboratories)
ALR H2O2 inh – inhibitors of human ALR sulfhydryl oxidase, primary screen, biochemical, H2O2 detection, HRP-luminol luminescence, single point | FAD-linked sulfhydryl oxidase ALR (Homo sapiens), P55789 | purified ALR, DTT oxidation | inhibition, % (no concentration beside the values) | 3.8% of 290,000 active | AID 485317, 2010;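 active means mean and each replicate at 75% or more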;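 further: stock transfer was 7.5 nL into about 7.5 µL; 0% = neutral wells and 100% = wells with inactivated enzyme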
Target sequence (P55789 whole entry, looked up): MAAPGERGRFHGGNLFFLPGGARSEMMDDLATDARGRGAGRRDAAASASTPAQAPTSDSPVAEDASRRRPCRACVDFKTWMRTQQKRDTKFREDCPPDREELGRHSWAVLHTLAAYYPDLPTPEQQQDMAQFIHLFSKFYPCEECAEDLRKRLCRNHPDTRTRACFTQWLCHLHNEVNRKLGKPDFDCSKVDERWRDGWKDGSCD
E coli growth – E. coli growth inhibition, primary screen, OD600. OD600 absorbance (no concentration beside the values). 0.21% of 330,000 active. Escherichia coli growth, 23 h; hits give low values;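 active means OD600 absorbance below the run mean of sample wells minus 3.6 SD, in any replicate, cut at about 0.56 in these data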;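 further: stock transfer was 300 nL into about 60 µL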
Vif TR-FRET – inhibitors of Vif binding to APOBEC3G peptide, primary screen, biochemical, TR-FRET, GST-Vif 1-94, biotin-A3G peptide, dose response retest (AID 1117319). TR-FRET GST-Vif / biotin-A3G peptide binding; higher % means a stronger effect; test concentration not given here; strong numbers were not always called active. inhibition, %, or IC50 in µM where a hit was titrated. 0.57% of 260,000 active. Virion infectivity factor (Human immunodeficiency virus type 1 group M subtype B (isolate …;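 active means above the screen mean plus three standard deviations and confirmed in dose response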;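 further: Vif residues 1-94 fused to GST binding biotinylated APOBEC3G peptide 110-148; 0% = full assay without inhibitor and 100% = GST in place of GST-Vif; retest series ran down from 100 µM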
rRNA inh HTS – reduced GFP signal of wild-type E. coli, primary screen, bacterial rRNA inhibitor project, GFP/RFP fluorescence, OD600, single point; E. coli WT GFP vs humanized-ribosome RFP mutants, 24 h; hits give low values; DMSO median 0, no signal -100; GFP signal change (wild-type ribosome), % (concentration not given with the values); 1.6% of 350,000 active;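 active means significant combined selectivity score with lowered wild-type GFP, culture density cut under 30%, mutant RFP and density less affected; inactive means any of these conditions unmet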; further: one replicate is shown; some compounds called inactive have numbers as strong as hits
FGF22 binding – binders of human FGF22 protein, primary screen, FGF22 synaptogenesis inhibitor project, biophysical, thermal shift, single point; Fibroblast growth factor 22 (Homo sapiens), Q9HCT0; recombinant FGF22 thermal shift, SYPRO orange fluorescence; percent of sucrose octasulfate shift, DMSO zero; calls only at 9.99 µM; 1.5% of 340,000 active;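 active means melting point raised past a set limit in the mean and every replicate; three in four hits are not shown here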
Target sequence (Q9HCT0 whole entry, looked up): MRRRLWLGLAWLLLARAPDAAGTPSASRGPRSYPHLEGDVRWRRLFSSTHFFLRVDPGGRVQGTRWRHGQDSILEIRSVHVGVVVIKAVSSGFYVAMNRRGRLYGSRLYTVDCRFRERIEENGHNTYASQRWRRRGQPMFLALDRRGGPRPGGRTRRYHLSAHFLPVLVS
HNF4A DNA FP – change in binding of human HNF4A to DNA, primary screen, biochemical, fluorescence polarization, FITC-DNA. AID 1224865, 2016. activity change, % at 10 µM. Hepatocyte nuclear factor 4-alpha (Homo sapiens), P41235. 0.3% of 360,000 active. 1 h; in the data active means activity change above about 30%, passing the limit was not always enough;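 further: controls were the assay level and a saturating level of protein; the project sought stronger binding though the title names inhibitors; some compounds called inactive have numbers as strong as hits; positive values seem to mean higher polarization but the record does not say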
MLL AF4-AF9 inh – inhibitors of AF4 peptide binding to AF9, primary screen, biochemical, AlphaScreen, biotin-AF4 peptide, FLAG-AF9, single point; Protein AF-9 (Homo sapiens), P42568; inhibition, % at 10 µM; 0.47% of 350,000 active;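 active means every replicate reaching a set inhibition limit, whatever the replicate mean, cut at about 25% in these data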;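 further: 0% = plate neutral control median and 100% = total signal loss; the record names both 10 and 1 µM as test concentration; the first replicate is given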
Target sequence (P42568 whole entry, looked up): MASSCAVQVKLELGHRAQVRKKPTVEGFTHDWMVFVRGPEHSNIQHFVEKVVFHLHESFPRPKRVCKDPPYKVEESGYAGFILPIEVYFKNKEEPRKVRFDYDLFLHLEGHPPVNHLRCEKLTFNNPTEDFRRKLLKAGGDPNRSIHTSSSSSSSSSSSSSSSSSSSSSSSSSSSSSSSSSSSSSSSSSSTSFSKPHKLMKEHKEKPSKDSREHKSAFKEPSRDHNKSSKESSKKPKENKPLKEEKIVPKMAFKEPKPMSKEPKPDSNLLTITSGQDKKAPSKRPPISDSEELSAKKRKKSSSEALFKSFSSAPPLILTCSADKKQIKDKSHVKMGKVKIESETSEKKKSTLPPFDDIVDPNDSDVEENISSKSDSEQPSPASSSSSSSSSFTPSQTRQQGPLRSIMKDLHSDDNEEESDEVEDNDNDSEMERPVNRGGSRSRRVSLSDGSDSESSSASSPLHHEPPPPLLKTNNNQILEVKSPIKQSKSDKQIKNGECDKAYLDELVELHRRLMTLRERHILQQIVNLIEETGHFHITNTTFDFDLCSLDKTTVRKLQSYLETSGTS
rRNA inh HTS OD600 – also measured in rRNA inh HTS; calls as there; OD600 change, %; measured here: OD600 growth;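 optical density of the mix in the first replicate; 0 = DMSO median and -100 = no signal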
rRNA inh HTS RFP – also measured in rRNA inh HTS; calls as there; RFP signal change, %; measured here: RFP humanized mutant strains;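 first replicate; 0 = DMSO median and -100 = no signal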
* marks the source's active call; other numbers are inactive results; i = inactive; / = not tested or not shown; & = joins results of further samples.

Structure	ALR H2O2 inh	E coli growth	Vif TR-FRET	rRNA inh HTS	rRNA inh HTS OD600	rRNA inh HTS RFP	FGF22 binding	HNF4A DNA FP	MLL AF4-AF9 inh
COc1cccc2sc3ccc(C#CC4(O)CCCCC4)cc3c(=O)c12	2	0.68	/	/	/	/	/	2.2	/
N#Cc1ccc(CSc2nnc(NC(=O)C3CCCO3)s2)cc1 (stereo not drawn)	2	0.72	-1%	/	/	/	/	0.9	/
S=C(NCC1CCCO1)N1CCN(c2cccc(Cl)c2)CC1 (stereo not drawn)	3	0.66	-3%	-24	-27	-0.3	i	-4.9	1.8
CCCC(=O)Nc1cccc(NC(=O)c2cccc([N+](=O)[O-])c2C)c1	-2	0.67	/	/	/	/	i	-0.9	-10
CCNC(=O)Nc1ccc2c(c1)C(=O)N(C)[C@@H]1CC[C@H](CC(=O)NCCOC)O[C@@H]1CO2	/	/	/	0	0	-2.7	i	/	-1.6
CN(CC(O)COc1ccc(S(=O)(=O)N2CCOCC2)cc1)C1CCCCC1 (stereo not drawn)	/	0.7	28%	/	/	/	/	0.6	/
CCOc1ccc(N(C)S(=O)(=O)c2ccc3[nH]cc(C(=O)NCC4CCCO4)c(=O)c3c2)cc1 (stereo not drawn)	-13	0.74	2%&6%	/	/	/	/	2.6	/
C[C@@H]1CN([C@H](C)CO)C(=O)c2cc(NC(=O)Nc3ccc(F)cc3)ccc2O[C@@H]1CN(C)S(=O)(=O)c1cn(C)cn1	/	/	/	8	16	-0.8	i	/	-8.7
CCN(CC)C(=O)c1[nH]cnc1C(=O)NC1CCN(C(=O)OC(C)(C)C)CC1	-4	0.71	/	1	7	4.0	i	0.5	1.0
Cc1noc(C)c1NC(=O)N(C)C[C@H]1Oc2c(NC(=O)CCCCCC(=O)Nc3ccccc3N)cccc2C(=O)N([C@@H](C)CO)C[C@@H]1C	/	/	/	4	3	0.4	i	/	0.0
CO[C@@H]1CN(C)C(=O)c2ccc(NS(C)(=O)=O)cc2OC[C@@H](C)N(Cc2cncnc2)C[C@H]1C	/	/	/	0	-1	-1.3	i	/	-15
CSc1ccc(S(=O)(=O)NCC(=O)OCC(=O)N(C)CC(=O)Nc2ccc(F)cc2)cc1[N+](=O)[O-]	/	0.7	/	-7	-1	0.1	i	-3.0	2.5
C=CCn1c(SCC(=O)N2CCN(C(=O)c3ccco3)CC2)nc2sc(CC)cc2c1=O	-3	0.69	3%	/	/	/	/	-1.6	/
COc1cc(C(=O)NCC(=O)NCCSc2ccc(Br)cc2)cc(OC)c1OC	-17	0.65	2%	7	10	2.0	/	5.4	-2.2
COc1cc(/C=C/c2ccc3cccc(O)c3n2)c(Br)cc1O	6	/	/	-54	-72	-15	i	17	-0.4
Oc1ccccc1-c1nc(NCc2ccco2)c2ccccc2n1	-5	0.66	32%	/	/	/	/	-0.2	/
O=c1[nH]c(S)c(/C=C2\C=Nc3ccccc32)s1	99*	0.68	8%	/	/	/	i	-26	0.2
O=C(Nc1cccc2ccccc12)c1[nH]c(-c2ccccc2)c2c1C(=O)N(C1CC1)C2=O	/	/	/	0	20	-4.7	i	4.2	-5.2
Cc1ccc(CNC(=O)c2ccccc2NC(=O)CSc2nnnn2C)cc1	30	0.71	-6%	/	/	/	/	1.6	/
Cc1cccc(C)c1NC(=O)c1cccc(COc2cc(Cl)ccc2Cl)c1	-5	0.72	-1%	/	/	/	/	-0.2	/
Oc1oc(-c2ccccc2)nc1C=NCc1ccncc1	22	0.66	19%	/	/	/	/	-0.5	/
C[C@@H]1CN([C@H](C)CO)C(=O)Cc2cc(NC(=O)Nc3ccc(F)cc3)ccc2O[C@@H]1CN(C)C(=O)Nc1cccc2ccccc12	/	/	/	0	-6	3.6	i	/	2.2
COc1ccc(N2CCN(CCC3Oc4cc([N+](=O)[O-])ccc4NC3=O)CC2)cc1 (stereo not drawn)	86*	0.71	12%	-15	3	1.2	i	1.1	14
COCCNC(=O)C1CCCN(C(=O)c2ccc(SC(F)(F)F)cc2)CC1 (stereo not drawn)	/	/	/	3	16	-2.4	i	-3.3	-0.9
COc1ccc(CN(Cc2ccc(C(=O)O)cc2)C(=S)Nc2ccccc2Cl)cc1OC	8	0.67	1%	-14	-16	-5.5	i	-1.1	0.3
CCOC(=O)Cc1csc(NC(=O)CSc2nnc(-c3cccnc3)n2Cc2ccco2)n1	-5	0.66	4%	/	/	/	/	-2.2	/
Cc1ccc(C(=O)NCc2ccncc2)cc1S(=O)(=O)Nc1cccc(C)c1C	0	0.71	/	7	-15	2.4	i	-0.9	1.1
Cc1cccc(C)c1NC(=O)C1c2cccc[n+]2CC(=O)N1Cc1cccs1 (stereo not drawn)	11	0.68	7%	15	12	1.0	i	0.9	-1.7
CO[C@H]1CC[C@H]2CCN(C)C(=O)[C@@H](C)N(C)C(=O)c3cc(C#N)ccc3OC[C@H]1O2	/	/	/	1	-6	0.0	i	/	1.6
Cc1cccc(NC(=S)N2CCN(S(=O)(=O)c3ccccc3)CC2)c1	-12	0.69	/	-1	-11	1.1	i	-4.4	-0.4
CCC(C)N1C(=O)CCC1C(=O)N1CCN(c2ccc(F)cc2)CC1 (stereo not drawn)	19	0.67	1%	/	/	/	/	3.0	/
CO[C@H]1CN(C)C(=O)c2cc(NC(=O)C3CCC3)ccc2OC[C@@H](C)N(Cc2nccs2)C[C@H]1C	/	/	/	-3	2	0.1	i	/	2.0
O=C(C[n+]1ccccc1)c1ccc(-c2ccccc2)cc1	34	0.68	11%	-3	4	-0.7	i	4.3	1.3
COc1cc(C=C2NC(=O)NC2=O)ccc1O	/	/	/	8	13	2.5	i	-2.1	-2.2
COc1cccc(C(=O)COc2ccc(NC(=O)c3ccccc3)cc2)c1	/	0.69	1%	1	1	-2.4	i	0.5	-1.0
O=C(N1CCOCC1)N1CCCC(c2nc(-c3cccs3)no2)C1 (stereo not drawn)	-11	0.67	-4%	3	-10	-2.0	/	-0.2	/
CC1(C)CC(=O)C2=C(C1)Oc1nc3ccccc3cc1C2C(C#N)C#N (stereo not drawn)	80*	0.76	-16%&2%	/	/	/	/	1.1	/
CCOC(=O)c1csc(CCNC(=O)c2ccccc2)n1	/	/	4%	8	12	-2.3	i	-0.6	1.0
CC(C)CNC(=S)NNC(=O)c1ccco1	17	0.7	/	/	/	/	/	-0.7	/
O=C(C1CCOCC1)N1C[C@@H]2[C@H](c3ccccc31)[C@H](CO)N2C(=O)Nc1cccc(F)c1	/	/	/	3	-3	-2.2	i	/	-5.0

Overlap with the part before: 2 compounds; new compounds follow.
Structure	ALR H2O2 inh	E coli growth	Vif TR-FRET	rRNA inh HTS	rRNA inh HTS OD600	rRNA inh HTS RFP	FGF22 binding	HNF4A DNA FP	MLL AF4-AF9 inh
CC(C)CNC(=S)NNC(=O)c1ccco1	17	0.7	/	/	/	/	/	-0.7	/
O=C(C1CCOCC1)N1C[C@@H]2[C@H](c3ccccc31)[C@H](CO)N2C(=O)Nc1cccc(F)c1	/	/	/	3	-3	-2.2	i	/	-5.0
CCc1nnc(SCC(=O)Nc2nnc(C)s2)n1CC1CCCO1 (stereo not drawn)	-5	0.72	/	5	-4	-2.3	i	-0.5	-2.3
C[C@H]1CN([C@@H](C)CO)S(=O)(=O)c2ccc(C#Cc3ccccn3)cc2O[C@H]1CN(C)Cc1ccccc1	/	/	/	-6	-14	5.9	i	/	-0.1
CCOc1cc(/C=C/c2nc3ccccc3c(=O)[nH]2)ccc1O	/	0.6	-1%	4	0	3.6	i	2.9	-3.2
COCCCNC(=O)c1c[nH]c2ccc(S(=O)(=O)N3CCC(C)CC3)cc2c1=O	-1	0.66	2%	-3	9	3.8	i	-0.7	1.3
C[C@H](CO)N1C[C@H](C)[C@@H](CN(C)S(=O)(=O)c2ccccc2)Oc2ncc(/C=C/c3ccccc3)cc2C1=O	/	/	/	-7	-5	-1.5	i	/	7.2
COc1cccc(S(=O)(=O)N2CCCCN3[C@H](C2)[C@@H](c2ccc(-c4ccccc4)cc2)[C@@H]3CO)c1	/	/	/	3	5	4.2	i	/	-5.1
O=C1C2C3C=CC(CC3)C2C(=O)N1c1cccc(C(F)(F)F)c1 (stereo not drawn)	-9	0.58	-5%	5	15	7.5	i	-0.1	1.1
Cn1c(=O)c2c(-c3ccccc3)n(-n3cnnc3)cc2n(C)c1=O	96*	0.73	13%	/	/	/	/	-3.0	/
NNC(=O)c1cc2c(s1)CCCCCC2	/	0.71	-1%	/	/	/	/	4.8	/
COc1ccc2cc(C(=O)C3CCCN(C(=O)c4ccnn4C)C3)ccc2c1 (stereo not drawn)	-17	0.63	4%	-28	-22	1.1	i	4.0	1.9
CCCc1cn(CC[C@@H]2CC[C@H](NC(=O)Nc3ccc4c(c3)OCO4)[C@H](CO)O2)nn1	/	/	/	3	4	-2.5	i	/	0.2
CC(=O)Nc1ccc(S(=O)(=O)N2CCN(CCc3ccccc3)CC2)cc1	2	0.69	10%	11	14	-0.8	i	-3.6	-6.9
C[C@H](CO)N1C[C@H](C)[C@H](CN(C)C(=O)NC2CCCCC2)Oc2c(NS(=O)(=O)c3cccs3)cccc2C1=O	/	/	/	-7	-4	0.7	i	/	-0.6
Cc1cc(C)c2c(N=CN(C)C)c(C(=O)N3CCN(c4ncccn4)CC3)sc2n1	-5	0.73	10%	/	/	/	/	0.0	/
CC1=C(C(=O)NC(C)c2ccccc2)C2(CCC(C)CC2)OC1=O (stereo not drawn)	/	0.72	2%	-1	2	-4.4	i	0.9	1.2
CCOc1ccccc1NC(=O)CSc1nc2ccccc2nc1N1CCOCC1	-5	0.72	/	-9	-14	-6.9	i	0.9	5.6
CCn1c(SCC(=O)Nc2cccc(OC)c2)nc2c(c1=O)SCC2	26	0.69	4%	1	-1	-0.1	i	3.3	-8.3
COc1cc(NC(=O)c2ccccc2Cl)ccc1NC(=O)c1ccco1	-2	0.7	-1%	/	/	/	/	1.8	/

Not all compounds are listed, so the mix of outcomes need not match the whole.
